ALR inh = inhibitors of human ALR sulfhydryl oxidase, primary screen, biochemical, H2O2 detection, HRP-luminol luminescence, single point; inhibition, % (test concentration not listed); purified ALR, DTT oxidation; FAD-linked sulfhydryl oxidase ALR (Homo sapiens), P55789; actives 3.8% (n = 290,000); AID 485317, 2010;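 active means mean and each replicate at 75% or more; inconclusive means only one of the two met; inactive means neither met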;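 further: stock transfer was 7.5 nL into about 7.5 µL; 0% = neutral wells and 100% = wells with inactivated enzyme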
Target sequence (P55789 whole entry, looked up): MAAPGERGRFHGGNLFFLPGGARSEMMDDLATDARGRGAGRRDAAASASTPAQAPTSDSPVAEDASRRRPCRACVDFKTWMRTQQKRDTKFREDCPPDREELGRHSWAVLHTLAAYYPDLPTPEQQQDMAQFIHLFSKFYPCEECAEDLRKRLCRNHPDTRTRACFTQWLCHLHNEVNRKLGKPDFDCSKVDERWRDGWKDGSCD
FGF22 binding = binders of human FGF22 protein, primary screen, FGF22 synaptogenesis inhibitor project, biophysical, thermal shift, single point | recombinant FGF22 thermal shift, SYPRO orange fluorescence; percent of sucrose octasulfate shift, DMSO zero | AID 651658, 2012 | actives 1.5% (n = 340,000) | Fibroblast growth factor 22 (Homo sapiens), Q9HCT0 | calls only at 9.99 µM;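 active means melting point raised past a set limit in the mean and every replicate; inconclusive means no clear call; three in four hits are not shown here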
Target sequence (Q9HCT0 whole entry, looked up): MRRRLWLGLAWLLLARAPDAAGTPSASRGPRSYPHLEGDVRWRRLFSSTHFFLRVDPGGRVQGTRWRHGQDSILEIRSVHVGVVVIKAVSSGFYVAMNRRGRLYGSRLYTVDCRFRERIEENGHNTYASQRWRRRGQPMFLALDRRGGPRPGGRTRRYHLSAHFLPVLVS
rRNA inh HTS = reduced GFP signal of wild-type E. coli, primary screen, bacterial rRNA inhibitor project, GFP/RFP fluorescence, OD600, single point; AID 720706, 2013; GFP signal change (wild-type ribosome), % (no concentration beside the values); actives 1.6% (n = 350,000); E. coli WT GFP vs humanized-ribosome RFP mutants, 24 h; stronger effect = lower value; DMSO median 0, no signal -100;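 active means significant combined selectivity score with lowered wild-type GFP, culture density cut under 30%, mutant RFP and density less affected; inactive means any of these conditions unmet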; further: one replicate is shown; some compounds called inactive have numbers as strong as hits
Beta cell apopt = inhibitors of cytokine-induced beta cell apoptosis, primary screen, luminescence; protection from apoptosis, % (concentration not given with the values); actives 0.8% (n = 300,000); INS-1E cytokine-induced death, ATP luminescence, 48 h; percent of positive-control rescue, neutral wells zero;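 active means all replicates at 75% or more, or half of them and the mean; inconclusive means half reach 75% but not the mean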;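 further: 0% = cytokine-treated negative control wells and 100% = positive control rescue; higher means more ATP so stronger rescue from cytokine killing; wells of about 40 µL received 100 nL stock; the first replicate is given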
MLL AF4-AF9 inh = inhibitors of AF4 peptide binding to AF9, primary screen, biochemical, AlphaScreen, biotin-AF4 peptide, FLAG-AF9, single point | inhibition, % at 10 µM | actives 0.47% (n = 350,000) | AID 651704, 2012;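 active means every replicate reaching a set inhibition limit, whatever the replicate mean, cut at about 25% in these data; inconclusive means mean inhibition reaches that limit but some replicates miss it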;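 further: 0% = plate neutral control median and 100% = total signal loss; the record names both 10 and 1 µM as test concentration; the first replicate is given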
Target sequence (P42568 whole entry, looked up): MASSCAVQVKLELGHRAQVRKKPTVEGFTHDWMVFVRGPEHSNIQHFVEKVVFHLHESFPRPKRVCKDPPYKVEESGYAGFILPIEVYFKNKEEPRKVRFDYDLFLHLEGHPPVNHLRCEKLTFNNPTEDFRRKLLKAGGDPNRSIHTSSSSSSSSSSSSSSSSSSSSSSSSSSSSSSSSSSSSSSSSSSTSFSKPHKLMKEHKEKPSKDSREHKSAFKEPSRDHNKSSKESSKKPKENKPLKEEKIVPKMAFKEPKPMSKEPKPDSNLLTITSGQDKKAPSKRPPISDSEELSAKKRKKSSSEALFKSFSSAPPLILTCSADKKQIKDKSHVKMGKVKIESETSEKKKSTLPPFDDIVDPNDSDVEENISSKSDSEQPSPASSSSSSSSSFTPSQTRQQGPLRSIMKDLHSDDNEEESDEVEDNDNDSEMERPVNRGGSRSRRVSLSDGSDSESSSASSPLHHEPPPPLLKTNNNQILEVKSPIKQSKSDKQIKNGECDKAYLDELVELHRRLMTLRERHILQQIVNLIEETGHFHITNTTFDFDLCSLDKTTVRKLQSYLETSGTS
RanGTP-Imp inh = inhibitors of RanGTP-importin-beta interaction, primary screen, biochemical, FRET, CFP-Ran, YFP-importin-beta, homogeneous | AID 2216, 2009 | inhibition, % (no concentration beside the values) | cell-free CFP-Ran/YFP-importin-beta FRET ratio | actives 1.1% (n = 300,000) | Ran GTPase (GTP-bound) - importin-beta complex;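 active means most replicates above 15%; inconclusive means exactly half above 15%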;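 further: 0% = DMSO wells and 100% = Ran loaded with GDP instead of GTP; wells of about 40 µL received 100 nL stock; the first replicate is given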
Calb FLC = C. albicans growth inhibition with fluconazole, primary screen, CaCi-2 strain, Alamar Blue fluorescence. C. albicans CaCi-2 (fluconazole-resistant clinical isolate) + fluconazole, 48 h. growth inhibition, % (concentration not given with the values). actives 0.57% (n = 300,000). AID 1979, 2009;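 active means most replicates above 75%; inconclusive means exactly half above 75%; inactive means most below 75%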;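 further: all wells also contain fluconazole at 8 µg/ml as a sub-toxic cotreatment; 0% = median of DMSO wells and 100% = median of geldanamycin control wells; wells of about 8 µL received 7.5 nL stock; the first replicate is given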
T cruzi inh = inhibitors of intracellular T. cruzi growth, primary screen, luminescence, NIH3T3 host cells. T. cruzi beta-gal in NIH3T3, 90 h. inhibition, % (concentration not given with the values). actives 1.4% (n = 300,000);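 active means mean inhibition across valid replicates above about 55%, limit read from the data; inconclusive means mean below that limit but half or more replicates reach it; inactive means mean below it, under half of replicates reach it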;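 further: signal also drops with host cell toxicity which is not excluded here; 0% = plate median of DMSO wells and 100% = zero luminescence signal; higher percent means less beta-gal luminescence so fewer parasites; stock transfer was 50 nL into about 50 µL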
rRNA inh HTS OD600 = second read-out of rRNA inh HTS, no call of its own (marks repeat the call); OD600 change, %; measured here: OD600 growth;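 optical density of the mix in the first replicate; 0 = DMSO median and -100 = no signal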
rRNA inh HTS RFP = also measured in rRNA inh HTS; calls as there; RFP signal change, %; measured here: RFP humanized mutant strains;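 first replicate; 0 = DMSO median and -100 = no signal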
* = called active by the depositor; i = inactive; ? = inconclusive; · = no result given. Not all compounds are listed; count on the stated rates, not on these rows.

Fields – ALR inh	FGF22 binding	rRNA inh HTS	rRNA inh HTS OD600	rRNA inh HTS RFP	Beta cell apopt	MLL AF4-AF9 inh	RanGTP-Imp inh	Calb FLC	T cruzi inh
COc1cccc2cc(C(=O)CC3(O)C(=O)N(Cc4ccccc4)c4ccccc43)c(=O)oc12 (stereo not given)
→ -7	·	·	·	·	-3	·	5.0	-4	-15
CCOc1ccc(S(=O)(=O)Nc2cccc(C(=O)NCC(c3ccccc3)N(C)C)c2)cc1 (stereo not given)
→ ·	i	-2	-7	3.5	-1	1.8	-1.1	-3	10
COc1ccc(CCNC(=O)C(=O)NCC2OCCN2S(=O)(=O)c2ccc(OC)c(C)c2)cc1 (stereo not given)
→ ·	i	3	-18	-0.3	5	-4.1	1.4	-11	-25
CCOC(=O)c1nn(-c2cccc(OC)c2)c(-c2ccccc2)c1C(=O)c1ccccc1
→ -8	·	1	-1	-2.9	4	·	2.3	-3	42
O=S(=O)(c1ccc2nc(COc3ccc(Cl)cc3Cl)[nH]c2c1)N1CCOCC1
→ ·	i	-31	-30	-3.3	16	2.0	0.6	12	17
COc1cccc(-c2onc3ccc(C(=O)/C=C/N(C)C)cc23)c1
→ -5	i	-1	-4	0.4	-8	5.4	1.6	29	-4
O=C(/C=C/Sc1ccccc1)c1ccccc1
→ ?	·	-14	12	4.1	-1	9.9	-2.3	22	24
CCOC(=O)C1=C(c2ccccc2)NC(N)=NC1c1ccc(OCc2ccc(C(=O)OC)cc2)cc1 (stereo not given)
→ -49	i	-56	-79	-27	-4	17	?	-18	25
COc1ccccc1C(=O)NC(=O)COC(=O)c1cc[n+]([O-])cc1
→ 4	i	9	9	-0.7	-4	-3.8	4.3	-1	-13
CC1(C2CC2)NC(=O)N(CC(=O)Nc2ccc(C(F)(F)F)cc2)C1=O (stereo not given)
→ ·	i	1	10	2.7	-1	-1.0	·	·	·
COc1cc(-c2nnc(COC(=O)c3nn(CC(C)C)c(=O)c4ccccc34)o2)cc(OC)c1OC
→ -5	i	-5	-9	5.1	-8	0.3	5.8	7	-8
CC(C)C(c1nnnn1Cc1ccccc1)N1CCN(Cc2ccco2)CC1 (stereo not given)
→ -19	·	·	·	·	·	·	-3.1	-2	45
Cc1ccccc1-c1nc(CN2CCC(C(=O)O)CC2)c(C)o1
→ ·	i	11	8	-1.6	-1	1.3	4.7	-4	-19
COc1ccc(-c2cn(CCC(=O)O)c(-c3ccc(Cl)nc3)n2)cc1
→ 2	i	5	-6	0.7	-10	2.5	·	·	·
O=C(C(=O)N1CCN(c2cccc(Cl)c2)CC1)c1c[nH]c2ccccc12
→ -4	·	-57	-83	-20	-1	1.4	-1.8	41	10
CC(C)=C1C2C=CC1C(C(=O)Nc1cccc(C)c1)C2C(=O)O (stereo not given)
→ -8	·	2	0	0.0	-1	·	-2.5	3	-5
CCN(C(=O)CSc1ncnc2sc(C)c(C)c12)C1CCS(=O)(=O)C1 (stereo not given)
→ 5	i	0	-5	0.4	3	-1.1	3.6	2	3
Cc1ccc(C(=O)N/C(=C\c2ccco2)C(=O)NC2CCS(=O)(=O)C2)cc1 (stereo not given)
→ 75	i	10	1	2.7	-2	0.0	?	0	-5
CC(C)(C)N/C=C(\C#N)S(=O)(=O)c1ccc(Br)cc1
→ -4	i	-10	9	-0.7	-6	-1.7	2.3	-8	17
Cc1cccc(C(=O)Nc2nc(C)c(C(=O)Nc3ccc4c(c3)CCC4)s2)c1
→ -4	i	-20	-28	11	·	0.7	-2.8	-6	-11

An excerpt from above in order of formula weight, low to high:
Fields – ALR inh	FGF22 binding	rRNA inh HTS	rRNA inh HTS OD600	rRNA inh HTS RFP	Beta cell apopt	MLL AF4-AF9 inh	RanGTP-Imp inh	Calb FLC	T cruzi inh
CC1(C2CC2)NC(=O)N(CC(=O)Nc2ccc(C(F)(F)F)cc2)C1=O (stereo not given)
→ ·	i	1	10	2.7	-1	-1.0	·	·	·
CCN(C(=O)CSc1ncnc2sc(C)c(C)c12)C1CCS(=O)(=O)C1 (stereo not given)
→ 5	i	0	-5	0.4	3	-1.1	3.6	2	3
CCOc1ccc(S(=O)(=O)Nc2cccc(C(=O)NCC(c3ccccc3)N(C)C)c2)cc1 (stereo not given)
→ ·	i	-2	-7	3.5	-1	1.8	-1.1	-3	10

Additional results:
Fields – ALR inh	FGF22 binding	rRNA inh HTS	rRNA inh HTS OD600	rRNA inh HTS RFP	Beta cell apopt	MLL AF4-AF9 inh	RanGTP-Imp inh	Calb FLC	T cruzi inh
CC(C)(C)[C@H]1C=C(C(=O)NC2CC2)O[C@@H](OCCCCO)C1
→ 3	i	17	21	3.0	-7	-5.9	-4.4	3	-9
CNC(=O)c1ccccc1-c1cn(C)c2ccccc2c1=O
→ -12	i	16	-12	-1.6	0	-3.9	2.4	-39	-9
CCOc1ccccc1Nc1nc(-c2sc(NC(=O)c3ccco3)nc2C)cs1
→ -1	i	-11	6	-2.1	12	-3.2	0.0	7	39
Cc1ccc(Cl)cc1N(CC(=O)NC(C)c1ccccc1)S(C)(=O)=O (stereo not given)
→ 11	i	5	4	-1.1	-7	-0.8	-3.7	-5	2
CC(OC(=O)c1ccc(Cl)c([N+](=O)[O-])c1)C(=O)N1CCN(Cc2ccccc2)CC1 (stereo not given)
→ -1	i	-3	-10	0.5	-7	5.2	·	·	·
Cc1cccc2sc(N(CCCN(C)C)C(=O)c3cc4ccccc4oc3=O)nc12
→ -4	·	·	·	·	-3	·	3.3	-17	46
COc1ccccc1NC(=O)C(C)OC(=O)CN1C(=O)C2CC=CCC2C1=O (stereo not given)
→ -3	i	7	15	-0.4	-5	0.1	-2.1	0	5
COc1ccc(/C=C2\CCc3ccccc3C2=O)cc1O
→ 32	i	-10	-13	1.3	-3	6.9	1.6	-3	-20
COCCNC(=O)c1cn(C)c2ccccc2c1=O
→ -7	i	-2	8	-1.2	-4	2.1	-1.3	3	-4
C#CCOCCOCCOCCNc1nc(N2CCN(C(=O)CCCCCCCCCCNC(=O)[C@@H](CCSC)n3cc(CCO)nn3)CC2)nc(N2CCN(C(=O)CCCCCCCCCCNC(=O)[C@@H]([C@H](C)O)n3cc(C)nn3)CC2)n1
→ 11	i	2	-5	7.9	-2	-3.2	·	·	·
O=C(NCC1CCCO1)c1onc(CSc2cccc(Cl)c2)c1C(=O)O (stereo not given)
→ 25	i	-7	-15	-2.0	5	2.3	2.8	-2	-6
O=C(O)c1ccc(Nc2ccc(Cl)c(Cl)c2)c([N+](=O)[O-])c1
→ 17	i	-26	-45	-10	-3	5.9	-0.3	17	-10
O=C(NCC1CCCN1S(=O)(=O)c1cccs1)c1ccc(F)c(F)c1 (stereo not given)
→ -2	i	1	1	-0.6	1	-0.9	2.6	11	0
COc1cccc(-c2c(C(=O)N/N=C(\C)c3cccnc3)nnn2-c2nonc2N)c1
→ -2	i	2	6	1.8	1	-1.0	1.1	24	-4
C=CCOc1cccc(CNn2nnnc2N)c1
→ -21	i	3	5	1.1	-13	-4.3	-1.4	6	4
CNC(=S)N(CCc1ccc(OC)c(OC)c1)C1CC(=O)N(c2ccccc2)C1=O (stereo not given)
→ -11	·	·	·	·	-3	·	-3.1	3	1
O=C(NNc1ccc(C2CCCCC2)cc1)C(O)(c1ccccc1)c1cccs1 (stereo not given)
→ 16	i	-29	-27	26	9	6.3	1.1	17	33
COc1cc2c(cc1C1C(C#N)=C(N)OC3=C1C(=O)CC(C)(C)C3)OCO2 (stereo not given)
→ 19	i	10	7	1.7	-8	-4.0	-1.7	9	-1
O=C(CN1CCN(S(=O)(=O)/C=C/c2ccccc2)CC1)NC(=O)NCc1ccco1
→ 5	·	4	3	4.3	-5	·	0.8	2	-15
COC(=O)c1ccc(S(=O)(=O)N2CCc3ccccc32)cc1
→ -22	i	-13	-10	-3.0	2	3.5	?	-5	8
CC(=O)Nc1cc(-c2ccccc2)ccc1O
→ 99*	·	·	·	·	6	·	-0.4	23	6
CC(=O)c1sc(N/N=C/c2ccc(C(C)C)cc2)nc1C
→ -5	i	1	-1	0.7	·	-0.5	-0.6	43	65*
O=C1CCCc2c1cc(C(=O)NC1CCSC1=O)c(=O)n2-c1ccccc1 (stereo not given)
→ ·	·	·	·	·	-4	·	3.5	39	-20
O=C(CN1C(=O)NC2(CCCC2)C1=O)Nc1nc2ccc(F)cc2s1
→ -3	i	8	5	2.2	-3	1.2	2.9	2	-6
COc1ccc(OC)c(CCNC(=O)c2sc3nc4n(c(=O)c3c2C)CCC4)c1
→ -5	i	2	-2	3.3	-2	-4.7	1.5	6	-9
O=C(c1ccc(S(=O)(=O)N2CCCCCC2)cc1)N1CCN(c2ccccc2)CC1
→ 5	i	7	8	-1.1	5	-0.7	?	4	19
CCC1CCCCN1S(=O)(=O)Cc1ccccc1Cl (stereo not given)
→ ·	i	-13	-20	-3.1	4	1.0	-2.3	10	1
Nc1ccc(Br)cc1-c1nc2ccccc2[nH]c1=O
→ ·	i	16	4	2.5	102*	-0.2	-3.1	-35	20
CC(=O)Nc1ccc(S(=O)(=O)N2CCC(NC(=O)C(Cc3ccccc3F)NC(C)=O)CC2)cc1 (stereo not given)
→ ·	i	9	18	-0.9	·	-2.4	7.0	0	-8
O=C(Nc1ccc(F)cc1)C1CCCN1S(=O)(=O)c1ccc(Br)cc1 (stereo not given)
→ 0	i	-3	-6	-0.2	3	-1.0	-2.8	-15	-11

ALR inh, entries above that show a hit
mol,ALR inh,rRNA inh HTS,rRNA inh HTS OD600,rRNA inh HTS RFP,MLL AF4-AF9 inh,RanGTP-Imp inh
CC(=O)Nc1cc(-c2ccccc2)ccc1O,99*,·,·,·,·,-0.4

Screens deposited in PubChem BioAssay by Broad Institute.
